Screening data: PubChem BioAssay, National Center for Advancing Translational Sciences (NCATS)
miR-21 reporter: miR-21 reporter, rising signal; HeLa miR-21 FLuc reporter, luciferase, 48 h; Potency, µM (highest dose often 38.3 µM), inactives show at the highest dose reporter change, positive = more light; 340,000 tested, under 10 active; AID 2288; active = well fitted rising curve with a large enough effect; inconclusive = small, poorly fitted or top-dose-only effect; inactive = no such curve, though single readings can be large or run the other way;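 note: % of control where 0% means no effect; miR-21 action dims this reporter so a rising signal means less miR-21 action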
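Using DMEM plus 10% FBS, HeLa miR-21-FLuc cells are incubated with test compounds (final up to about 40uM) for 48 hours; firefly luciferase signal is then imaged following reagent-mediated lysis.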
An asterisk follows results filed as active; u = inconclusive. Some of the compounds tested; count on the stated rates, not on these rows.

compound	miR-21 reporter
COc1ccc(C(=O)c2oc3ccccc3c2NC(=O)c2nc(SC)ncc2Cl)cc1Cl	2%
O=C(CSc1nnc(CNC(=O)c2ccccc2)n1-c1ccc(F)cc1)Nc1ccccc1F	1%
Cc1cccc(-c2nc(SCCCOc3cc(C)c(Cl)c(C)c3)n3[nH]c(=O)cc3n2)c1	4%
CCOc1ccc(C(=O)c2oc3ccccc3c2NC(=O)c2cc(-c3ccc(Cl)cc3)on2)cc1	-3%
COc1ccc(NC(=O)C2=C(C)Nc3ncnn3C2c2ccc[nH]2)cc1 (stereo not drawn)	-2%
CC(C)(C)c1ccc(C(=O)N2CC(=O)Nc3ccc(F)cc3C2c2ccc(F)cc2)cc1 (stereo not drawn)	u
Cc1noc(-c2ccccc2OCC(=O)Nc2ccccc2[N+](=O)[O-])n1	10%
CCOC(=O)N1CCC(NC(=O)c2cnn(-c3ccc(F)cc3F)c2C2CCN(C(=O)OC(C)(C)C)CC2)CC1	4%
N#C/C(=C/c1cn(Cc2ccccc2Cl)c2ccccc12)C(=O)Nc1cccc(Cl)c1	-2%
O=C(NCC(c1cccnc1)N1CCc2ccccc2C1)C(=O)Nc1ccc(Cl)cc1 (stereo not drawn)	-41%
CC(NC(=O)Nc1cc(Cl)ccc1Cl)c1c(-n2cccc2)sc2c1CCCC2 (stereo not drawn)	-1%
COc1ccccc1CN1CCC(CNC(=O)c2cnn(-c3cccc(Cl)c3)c2C2CCN(C(=O)OC(C)(C)C)CC2)CC1	28%
CC(C)N(C)C1CCN(S(=O)(=O)c2ccc3[nH]c(=O)ccc3c2)CC1	0%
Cc1ccc(-n2c(=O)c3c(cnn3C)n(CC(=O)Nc3cc(C)ccc3C)c2=O)cc1	2%
CCc1ccc(-n2nnc(-c3nsc(NC(=O)c4ccccc4Cl)n3)c2C)cc1	12%
COc1ccccc1NC(=O)CSC1=Nc2ccccc2C2=NC(CCC(=O)NCc3ccco3)C(=O)N12 (stereo not drawn)	-5%
Cc1cc(C)cc(C(=O)N(Cc2nc(-c3ccc(Cl)cc3)no2)C(C)C)c1	5%
COc1ccc(C)cc1NS(=O)(=O)c1c(C(=O)N2CCCCCC2)c(C)n(C)c1C	-2%
Cc1ccc(-c2noc(CNC(=O)c3ccc(Br)o3)n2)cc1	-3%
COc1cc(OC)cc(C(=O)Nc2cc3c(cc2N2CCCC2)n(C)c(=O)c(=O)n3C)c1	-1%

New compounds follow.
compound	miR-21 reporter
Cc1cccc(Nc2nc(Nc3cccc(C)c3)nc(N3CCOCC3)n2)c1	-11%
CCc1cc2c(cc3c(=O)n(CC(=O)NCCc4ccc(OC)c(OC)c4)ncn32)s1	0%
CC(=O)c1ccc(NC(=O)CN(C)S(=O)(=O)c2cccc3nsnc23)cc1	-1%
CCc1ccc(S(=O)(=O)c2nnn3c2nc(N2CCC(C(N)=O)CC2)c2cc(Cl)ccc23)cc1	-6%
Cc1ccc2c(c1)C(c1ccc(F)cc1)N(C(=O)COc1ccc(Cl)cc1Cl)CC(=O)N2 (stereo not drawn)	u
COc1cccc(/C=C2\SC(=S)N(NS(=O)(=O)c3ccc(C)cc3)C2=O)c1OC	-6%
COCCCNC(=O)Nc1cc(C(=O)NCc2ccc(OC)cc2)ccc1N1CCCC1	-24%
COc1ccc(Nc2c(-c3ccccn3)nc3ccc(Cl)cn23)cc1	-4%
CC(C)CCn1c(=O)c2cccnc2n(CC(=O)Nc2ccccc2)c1=O	0%
CNc1oc(-c2ccc(COc3ccc(C)cc3)o2)nc1C#N	-17%
Cc1cccc(OCc2nc(C#N)c(NCc3ccccc3Cl)o2)c1	-53%
Cc1cccc(-n2ccnc2SCC(=O)Nc2nc3ccccc3s2)c1	-36%
CCOc1ccccc1NS(=O)(=O)c1ccc(N2CCCCS2(=O)=O)cc1	7%
Cc1ccccc1OCC(=O)N(Cc1ccc(N(C)C)cc1)CC1CCCO1 (stereo not drawn)	u
CC(=O)c1ccc(NC(=O)c2c3c(nc4ccccc24)C(=O)N(C2CCCCC2)C3)cc1	-5%
CSc1ccc(CCNC(=O)C2CCCN(S(=O)(=O)N(C)c3ccc(F)cc3)C2)cc1 (stereo not drawn)	u
CCc1ccc(C(=O)c2cn(CC(=O)Nc3ccc(OC)c(Cl)c3)c3nc(C)ccc3c2=O)cc1	-1%
Cc1ccccc1Nc1c(-c2ccc(Cl)cc2)nc2c(C)cccn12	-6%
CCc1ccccc1NC(=O)c1ncoc1-c1ccco1	-1%
COc1ccc(/C=C/c2nc(C#N)c(NCCc3ccc(OC)c(OC)c3)o2)cc1OC	u

Continued.
compound	miR-21 reporter
COc1ccc(Nc2nc3cc(Cl)c(Cl)cc3n3cnnc23)cc1Cl	-12%
Cc1ccc(S(=O)(=O)N(CCc2ccccc2)CC(=O)Nc2cc(C)ccc2C)cc1	14%
COc1ccc(S(=O)(=O)NCC(c2ccco2)N2CCOCC2)cc1OC (stereo not drawn)	-1%
CCOC(=O)c1ccc(NC(=O)c2ccc(CN3C(=O)CCn4nc(C)cc43)cc2)cc1	-9%
CCc1ccc(-n2nc(C)c3c(C)cc(=O)n(CC(=O)Nc4cc(Cl)ccc4OC)c32)cc1	3%
O=C(Cn1ccn(-c2ccc(F)c(F)c2)c(=O)c1=O)c1ccc(F)cc1	-1%
Cc1ccc(CNC(=O)CN2C(=O)CC(c3ccc(C)c(C)c3)=Nc3ccccc32)cc1	-45%
COCCn1c(C)cc(O)c(C(c2ccccc2)N2CCC(C)CC2)c1=O (stereo not drawn)	2%
COc1ccc(CCNC(=O)CCn2c(=O)c3ccccc3n(CC(=O)Nc3ccc(C)cc3C)c2=O)cc1OC	-5%
COc1ccc(-c2onc(C)c2C)cc1S(=O)(=O)N1CCN(c2cc(C)ccc2C)CC1	0%
CCOC(=O)c1c(S(=O)(=O)N2CCCC(C(=O)N3CCN(c4cc(C)ccc4C)CC3)C2)c(C)n(C)c1C (stereo not drawn)	8%
Cc1cccc(N2CCN(C(=O)c3cccn4c(=O)c5cc(Cl)ccc5nc34)CC2C)c1 (stereo not drawn)	-3%
COc1ccc(C2=C(N3CCN(c4cc(Cl)ccc4C)CC3)c3ccccc3C2=O)cc1	-4%
OCCCn1c(-c2ccc(F)cc2)csc1=Nc1ccc(F)cc1	30%
Cc1cccc(NC(=O)c2ccc3nc(CCc4ccccc4)oc3c2)c1C	4%
CN(C(=O)C(=O)Nc1ccc2nc3n(c(=O)c2c1)CCCCC3)c1cccc(C(F)(F)F)c1	6%
Cc1ccc(-c2nc(CS(=O)(=O)CC(=O)NCCc3ccccc3)c(C)o2)cc1	0%
Cc1cccc(N2CCN(C(=O)CCCn3c(=O)[nH]c4ccsc4c3=O)CC2)c1C	u
COC(=O)c1ccccc1NC(=O)c1cnc2c(-c3cccc(C)c3)c(C)nn2c1C	-1%
CCc1ccc(CN(Cc2ccco2)C(=O)c2cc(-c3ccc(Cl)cc3)on2)cc1	-8%

(more compounds)
compound	miR-21 reporter
CCOc1ccc(NC(=O)CC2C(=O)N(c3ccc(F)cc3)C(=O)N2CCc2sccc2C)cc1 (stereo not drawn)	22%
COC(=O)c1sc2cccc(F)c2c1S(=O)(=O)NC(C)c1ccccc1 (stereo not drawn)	-2%
CCOC(=O)c1[nH]c(C)c(CCC(=O)NCc2ccc(CC)cc2)c1C	1%
Cc1ccc(OCC(=O)Nc2nnc(SCc3cc(=O)c4ccccc4[nH]3)s2)cc1	2%
O=[N+]([O-])c1ccc(C(c2sc3nc(-c4ccco4)nn3c2O)N2CCN(c3cccc(Cl)c3)CC2)cc1 (stereo not drawn)	-3%
COc1ccc(-c2cc(C(F)(F)F)n3nc(C(=O)Nc4sc5c(c4C(=O)OC(C)C)CCC(C)C5)cc3n2)cc1 (stereo not drawn)	-3%
Cc1ccccc1Cn1c2ccccc2c2cnn(CC(=O)NCc3cccc(Cl)c3)c(=O)c21	0%
COc1ccccc1N1CCN(S(=O)(=O)c2ccc(F)c(C(=O)Nc3ccc(C)c(F)c3)c2)CC1	13%
CNC(=O)CSc1cn(CC(=O)N2CCCCCC2)c2ccccc12	22%
N#Cc1ccc(-c2cccs2)nc1SCc1ccc(Cl)cc1Cl	-16%
CCOC(=O)Cn1c(=O)n(CC2CCCO2)c2nc(-c3c(F)cccc3Cl)nc(C(N)=O)c21 (stereo not drawn)	0%
CCOc1ccc(CC(=O)Nc2c(C(=O)c3ccc(F)cc3)oc3ccc(Cl)cc23)cc1OCC	-2%
CCN(C(=O)C(Cc1ccccc1)NS(=O)(=O)c1cccc2nsnc12)c1ccccc1 (stereo not drawn)	3%
Cc1ccc(C)c(CNC(=O)c2sc3ncnc(N(C)C4CCCCC4)c3c2C)c1	15%
O=S(=O)(c1ccccc1)c1nnn2c1nc(N1CCN(c3ccccc3)CC1)c1cc(Cl)ccc12	0%
Cc1sc2c(c1C)c(=O)n(CCc1ccccc1)c(=O)n2Cc1ccc(C(C)(C)C)cc1	0%
CCOc1ccccc1CNC(=O)CCn1ccc2cc(S(=O)(=O)N3CCC(C)CC3)ccc21	18%
CCN(CC)C(=O)Cn1c(=O)n(CCCCCC(=O)NCc2ccccc2Cl)c(=O)c2sccc21	-1%
Cc1cc(C)cc(NC(=O)[C@H]2O[C@@H]3OC(C)(C)O[C@@H]3[C@H]3OC(C)(C)O[C@H]32)c1	-1%
CCOC(=O)c1sc(NC(=O)C2c3ccccc3Oc3ccccc32)c(C(=O)OCC)c1C	2%

COc1ccc(Cl)cc1NC(=O)Cn1c(=O)n(Cc2cccs2)c(=O)c2cccnc21
  miR-21 reporter = 0%
O=C(Cn1c(=O)n(-c2ccc(Cl)cc2)c(=O)c2c3c(sc21)CCC3)c1ccc(F)cc1
  miR-21 reporter = -1%
CCN(C(=O)C1CCC(CNS(=O)(=O)c2cccc3nsnc23)CC1)c1cccc(C)c1 (stereo not drawn)
  miR-21 reporter = 20%
COc1ccc(N2CC(NC(=O)c3ccc(S(=O)(=O)N4CCCCC4)cc3)CC2=O)cc1 (stereo not drawn)
  miR-21 reporter = 0%
CC(=O)c1ccc(N2CCN(c3ncnc4c3c(-c3ccccc3)cn4-c3ccc(C)c(Cl)c3)CC2)cc1
  miR-21 reporter = -3%
CCN1CCN(Cc2nc3cc(NC(=O)c4cc(OC)c(OC)c(OC)c4)ccc3n2CC)CC1
  miR-21 reporter = 0%
CN(C(=O)CSc1nc2ccc(NC(=O)c3ccco3)cc2s1)c1ccccc1
  miR-21 reporter = 16%
CCC(C(=O)Nc1cc(OC)cc(OC)c1)n1nc(-c2ccc(C)c(C)c2)ccc1=O (stereo not drawn)
  miR-21 reporter = 0%
CCOc1ccc(CNS(=O)(=O)c2ccc3c(c2)CC(C)N3C(C)=O)cc1OC (stereo not drawn)
  miR-21 reporter = 7%
CCN(CC)c1ccc(C2C(C(N)=O)=C(C)Nc3nc(SCc4ccccc4)nn32)cc1 (stereo not drawn)
  miR-21 reporter = 16%

Given with values ahead of the structure: entries from further up.
miR-21 reporter | Molecule
-1% | O=C(Cn1c(=O)n(-c2ccc(Cl)cc2)c(=O)c2c3c(sc21)CCC3)c1ccc(F)cc1
0% | CCC(C(=O)Nc1cc(OC)cc(OC)c1)n1nc(-c2ccc(C)c(C)c2)ccc1=O (stereo not drawn)
0% | COc1ccc(Cl)cc1NC(=O)Cn1c(=O)n(Cc2cccs2)c(=O)c2cccnc21

(next part)
Cc1ccccc1C(=O)N1CC(=O)Nc2ccc(Cl)cc2C1c1ccccc1 (stereo not drawn)
  miR-21 reporter = 14%
CCn1ncc(Cl)c1C(=O)Nc1ccc2c(c1)CCC2
  miR-21 reporter = -53%
COc1ccc(NC(=O)CN2C(=O)CC(c3ccco3)Sc3ccccc32)cc1OC (stereo not drawn)
  miR-21 reporter = 9%
O=C(Cn1c(=O)n(-c2ccccc2)c(=O)c2sc3ccccc3c21)N1CCCC1
  miR-21 reporter = -4%
COc1ccc(Cl)cc1NC(=O)Nc1c[nH]c(=O)[nH]c1=O
  miR-21 reporter = 0%
COCCCNC(=O)Cn1c(=O)n(Cc2ccc(C(=O)NCc3ccc(C)cc3)cc2)c(=O)c2ccccc21
  miR-21 reporter = 0%
Brc1cccc(-c2cnn3c(-c4ccccc4)cc(-c4ccccc4)nc23)c1
  miR-21 reporter = -9%
Cc1cccc(OCCCCn2nnc3sc4c(c3c2=O)CCC(C)C4)c1 (stereo not drawn)
  miR-21 reporter = 4%
COc1ccc(N(C(=O)/C=C\C(=O)Nc2ccc(Cl)cc2)C(C(=O)NCc2ccco2)c2ccc(C)cc2)cc1 (stereo not drawn)
  miR-21 reporter = 29%
Cc1ccc(CNC(=O)CN2CCN(Cc3ccc(F)cc3)C2=O)cc1
  miR-21 reporter = -4%

COc1cccc(CNC(=O)C2CCN(c3nnc(-n4c(C)ccc4C)s3)CC2)c1OC
  miR-21 reporter = -1%
C=CCc1cccc2cc(C(=O)Nc3cccc(Cl)c3)c(=O)oc12
  miR-21 reporter = -15%
COc1ccc(-n2nc(C(=O)N3CCN(c4cccc(C)c4C)CC3)c3c4ccccc4n(C)c3c2=O)cc1
  miR-21 reporter = -4%
CCOC(=O)c1ccc(N2C(=O)c3n[nH]c(-c4cccs4)c3C2c2ccc(C(C)C)cc2)cc1 (stereo not drawn)
  miR-21 reporter = u
COc1ccc(-c2nc3scc(CCNS(=O)(=O)c4c(C)noc4C)n3n2)cc1
  miR-21 reporter = 3%

Copied from the listing (6 entries):
Brc1cccc(-c2cnn3c(-c4ccccc4)cc(-c4ccccc4)nc23)c1
  miR-21 reporter = -9%
Cc1cccc(OCCCCn2nnc3sc4c(c3c2=O)CCC(C)C4)c1 (stereo not drawn)
  miR-21 reporter = 4%
COc1ccc(N(C(=O)/C=C\C(=O)Nc2ccc(Cl)cc2)C(C(=O)NCc2ccco2)c2ccc(C)cc2)cc1 (stereo not drawn)
  miR-21 reporter = 29%
Cc1ccc(CNC(=O)CN2CCN(Cc3ccc(F)cc3)C2=O)cc1
  miR-21 reporter = -4%
COc1cccc(CNC(=O)C2CCN(c3nnc(-n4c(C)ccc4C)s3)CC2)c1OC
  miR-21 reporter = -1%
C=CCc1cccc2cc(C(=O)Nc3cccc(Cl)c3)c(=O)oc12
  miR-21 reporter = -15%
